ClpP mod: qHTS Assay for Activators of ClpP; purified B. subtilis ClpP, FRET peptide cleavage, 20 min; Potency, µM (top dose mostly 57.5 µM), for inactives: top-dose activity change, negative = active; 1.9% of 340,000 active; AID 651965, 2013; active = well fitted falling curve with a large enough effect; inconclusive = small, poorly fitted or top-dose-only effect; inactive = no such curve, though single readings can be large or run the other way; also: potency is read from the fitted curve at half-maximal effect; the source files actives as falling curves though it sought activators and does not explain the sign; nearly all actives have a fitted effect of over 65% in size; many hits overshoot -100%
Target sequence (P80244 whole entry, looked up): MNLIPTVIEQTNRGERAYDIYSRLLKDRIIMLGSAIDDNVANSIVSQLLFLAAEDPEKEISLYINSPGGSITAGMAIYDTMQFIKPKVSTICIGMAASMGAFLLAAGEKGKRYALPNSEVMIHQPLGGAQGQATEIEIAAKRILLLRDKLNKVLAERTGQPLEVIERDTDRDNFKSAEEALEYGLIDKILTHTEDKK
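FRET quenching reversal measured ClpP activation: 10 microg/mL B. subtilis ClpP at pH 8 with the FRET-FV decapeptide, read at 430 nm after 320 nm excitation. The 20-min minus 0-min signal was scaled between DMSO/no-enzyme wells and ADEP (5.8 microM final).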
TRPML1 ag: agonists of human TRPML1 channel; activation, % (no concentration beside the values); TRPML1-expressing cells, Ca2+ dye fluorescence, FDSS; host cell line not named in the record; reference of the full effect not given here; 0.12% of 410,000 active; Q9GZU1; in the data active = activation above about 50%; inconclusive = about 30% to 50%; inactive = below about 30%; also: 0% is about no effect; the text of the record puts the active cut at 80%
Target sequence (Q9GZU1 whole entry, looked up): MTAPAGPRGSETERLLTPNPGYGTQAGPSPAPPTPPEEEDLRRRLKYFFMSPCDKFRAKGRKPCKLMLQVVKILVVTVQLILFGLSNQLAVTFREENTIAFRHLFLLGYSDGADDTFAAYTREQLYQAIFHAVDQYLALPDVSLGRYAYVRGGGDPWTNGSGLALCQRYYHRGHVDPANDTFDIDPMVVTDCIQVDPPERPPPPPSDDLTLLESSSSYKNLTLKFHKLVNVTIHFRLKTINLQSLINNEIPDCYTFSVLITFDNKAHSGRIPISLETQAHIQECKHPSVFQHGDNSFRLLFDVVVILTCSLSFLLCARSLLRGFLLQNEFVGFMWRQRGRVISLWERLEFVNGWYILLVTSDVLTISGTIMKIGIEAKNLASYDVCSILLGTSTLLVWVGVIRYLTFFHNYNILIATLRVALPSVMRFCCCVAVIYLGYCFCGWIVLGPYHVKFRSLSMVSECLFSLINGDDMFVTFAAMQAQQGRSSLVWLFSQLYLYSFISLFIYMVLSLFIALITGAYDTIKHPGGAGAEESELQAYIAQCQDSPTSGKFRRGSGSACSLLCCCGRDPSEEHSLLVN
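Kinetic FDSS Ca2+ read in Tet-induced TRPML1-DL cells (ABD Ca8 dye plus quencher, 45-90 min RT loading): baseline, then compound, then 110 s agonist window; EC80 agonist 54-4 at 4uM final added afterwards for a 110 s antagonist window.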
* hit, by the source's call. Only part of the results is shown. The share of hits here may be higher or lower than overall.

How did CC(=O)Nc1cc(-c2ccc(C(=O)N3CCOCC3)cc2)cn2c(-c3cccc(C(C)=O)c3)cnc12 do in these assays?
ClpP mod: -16%; TRPML1 ag: -0.5

How did COc1ccc(-c2oc3c(c2C(=O)OCCCO)C(OCCCCCO)CCC3)cc1 (stereo not given) do in these assays?
ClpP mod: 4.3%; TRPML1 ag: -0.6

How did COc1cc2nc(N3CCCN(C)CC3)nc(NC3CCNCC3)c2cc1OC do in these assays?
ClpP mod: 3.8%; TRPML1 ag: -0.1

Results for CCc1nc2ccc(C(=O)N(C)Cc3ccco3)cn2c1N(C)C(=O)Cc1ccccc1 ?
ClpP mod: -2.0%; TRPML1 ag: -0.4

How did CC(=O)NCCNc1nc2cc(-c3ccsc3)sc2c(=O)n1C do in these assays?
ClpP mod: -22%; TRPML1 ag: -0.2

What do the screens show for `O=C1C(CCc2ccccc2)ON=C(c2cnccn2)N1Cc1ccc(F)cc1` (stereo not given)?
ClpP mod: 2.9%; TRPML1 ag: -0.2

What do the screens show for `COc1c(C)cc(C(O)c2ncc(-c3ccc(C(F)(F)F)cc3)[nH]2)cc1C` (stereo not given)?
ClpP mod: -7.3%; TRPML1 ag: -0.4

What do the screens show for `COCCNc1nc2cc(-c3ccccc3)sc2c(=O)n1C`?
ClpP mod: 4.8%; TRPML1 ag: -1.2

How did CCNC(=O)C1CCCN(C(=O)c2ccc(C#N)cc2)CC1 (stereo not given) do in these assays?
ClpP mod: 1.4%; TRPML1 ag: -0.6

What do the screens show for `CC(=O)c1nc(N2CCN(S(=O)(=O)c3ccc(C)cc3)CC2)c2ccccc2n1`?
ClpP mod: -2.7%; TRPML1 ag: 1.6

What do the screens show for `Cn1c(=O)c2cc(NC(=O)NCCc3cccs3)ccc2n1-c1ccc(C(C)(C)C)cc1`?
ClpP mod: 5.0%; TRPML1 ag: -0.6

Results for CCC(=O)N1CCC1(C)C(=O)Nc1ccc(OC)c(OC)c1 (stereo not given) ?
ClpP mod: -1.3%; TRPML1 ag: 0.0

How did COc1ccccc1-c1cc2c(c3c1ccn3C)C1CCC2C1 (stereo not given) do in these assays?
ClpP mod: 5.0%; TRPML1 ag: -0.4

Results for CCCCN1CC(N2CCCCC2)CS1(=O)=O (stereo not given) ?
ClpP mod: -0.9%; TRPML1 ag: 0.0

How did COc1ccccc1S(=O)(=O)N1CCN(c2nc(-c3cccs3)nc3ccccc23)CC1 do in these assays?
ClpP mod: 4.0%; TRPML1 ag: -0.3

Results for O=[N+]([O-])c1ccc2c(c1)CO[C@@]21O[C@H](CCO)C[C@H](O)[C@H]1O ?
ClpP mod: -23%; TRPML1 ag: 0.3

How did O=C1Nc2ccccc2N(C(=O)c2ccc3ccccc3c2)C1c1nc2ccccc2[nH]1 (stereo not given) do in these assays?
ClpP mod: 0.4%; TRPML1 ag: -0.4

How did O=S1(=O)CC(N2CCC(c3ccccc3)CC2)CN1Cc1ccc(F)cc1 (stereo not given) do in these assays?
ClpP mod: -5.3%; TRPML1 ag: -0.2

How did CCCS(=O)(=O)NC(=O)C1(C)CCN(C(=O)c2ccccc2OC(C)=O)C1 (stereo not given) do in these assays?
ClpP mod: 5.0%; TRPML1 ag: -0.5

What do the screens show for `CCc1nnc(NC(=O)C2CCCN(C(=O)c3ccoc3)C2)s1` (stereo not given)?
ClpP mod: 0.2%; TRPML1 ag: -0.7

How did C=C1C=C(C)n2ncc(C(=O)Nc3cccc4cnccc34)c2N1 do in these assays?
ClpP mod: -8.2%; TRPML1 ag: 0.2

Results for CCCNC(=O)C1(C)CCCN(C(=O)Cc2ccc3ccccc3c2)C1 (stereo not given) ?
ClpP mod: 2.3%; TRPML1 ag: -0.9

What do the screens show for `CC(C)(C)c1ccc(SC2=C[C@@]3(O)CC[C@@H](O)[C@@](Sc4ccc(C(C)(C)C)cc4)(C2=O)[C@H]3O)cc1`?
ClpP mod: 2.0%; TRPML1 ag: -0.1

What do the screens show for `CN(C)c1ccc(/C=C/c2ccnc3c(-c4ccccc4)cccc23)cc1`?
ClpP mod: 2.1%; TRPML1 ag: 19

Results for COc1ccc(S(=O)(=O)N2CCC3CC2c2c(-c4ccc(C(F)(F)F)cc4)cccc23)cc1 (stereo not given) ?
ClpP mod: -0.3%; TRPML1 ag: -0.4

What do the screens show for `COc1ccc(-c2coc3c(C(=O)Nc4cccc(C(C)=O)c4)cccc23)c(C)c1`?
ClpP mod: -13%; TRPML1 ag: 0.2

How did CCOC(=O)C1(C)CCN1C(=O)c1oc2ccccc2c1C (stereo not given) do in these assays?
ClpP mod: -1.4%; TRPML1 ag: -1.2

How did CCc1nc2ccc(C(=O)NCCCN3CCCC3=O)cn2c1N(C)Cc1ccc(OC)cc1 do in these assays?
ClpP mod: -0.7%; TRPML1 ag: -1.0

What do the screens show for `CC1(Cc2ccccc2F)C(=O)Nc2c(Cl)ccc(Cl)c21` (stereo not given)?
ClpP mod: -2.3%; TRPML1 ag: 1.4

How did Cc1cc(Cl)ccc1C(O)c1ncc(-c2ccc(C(F)(F)F)cc2)[nH]1 (stereo not given) do in these assays?
ClpP mod: -6.7%; TRPML1 ag: -0.5

How did CN1CCN(c2ccc(CNC(=O)C3Cc4c(-c5ccc6c(c5)OCO6)ccnc4O3)cc2)CC1 (stereo not given) do in these assays?
ClpP mod: 4.5%; TRPML1 ag: -0.5

What do the screens show for `CC(C)C(N)c1csc(Nc2nncc3ccccc23)n1` (stereo not given)?
ClpP mod: -7.5%; TRPML1 ag: 0.8

How did COc1cc(OC)c(OC)cc1/C=C/c1nccc2ccccc12 do in these assays?
ClpP mod: -0.8%; TRPML1 ag: 0.4

Results for CCCCCCCCN1C(=O)[C@H](CC(=O)N2CCN(C(=O)OCC)CC2)C[C@@]2(C(=O)OCC)CCCC=C12 ?
ClpP mod: 1.1%; TRPML1 ag: -0.6

How did Fc1cc(Cl)cc2ccc(-c3ccccc3)nc12 do in these assays?
ClpP mod: -7.8%; TRPML1 ag: -0.3

Results for CCc1nc2c(OCC(=O)c3ccc(Cl)cc3Cl)cccn2c1N(C)C(=O)c1cccs1 ?
ClpP mod: -0.2%; TRPML1 ag: -1.0

Results for CC(C)Nc1ncnc2c1ncn2[C@H]1CN(Cc2cccs2)C[C@@H](CO)O1 ?
ClpP mod: 0.1%; TRPML1 ag: -0.3

What do the screens show for `CC(=O)Nc1cc(-c2ccncc2)cn2c(-c3ccccc3)cnc12`?
ClpP mod: -9.0%; TRPML1 ag: -0.9

How did COCCNC(=O)C1(C)CCCN(C(=O)c2ccc3c(c2)CCO3)C1 (stereo not given) do in these assays?
ClpP mod: -2.5%; TRPML1 ag: 0.2

Results for COc1ccc(OC)c(/C=C2\Cc3ccccc3C2=O)c1 ?
ClpP mod: -5.1%; TRPML1 ag: -0.1

Two records drawn at random from the list so far, as already listed:
Results for CC(C)Nc1ncnc2c1ncn2[C@H]1CN(Cc2cccs2)C[C@@H](CO)O1 ?
ClpP mod: 0.1%; TRPML1 ag: -0.3

Results for CCCCCCCCN1C(=O)[C@H](CC(=O)N2CCN(C(=O)OCC)CC2)C[C@@]2(C(=O)OCC)CCCC=C12 ?
ClpP mod: 1.1%; TRPML1 ag: -0.6

Further records follow:
How did CN1CCC(N2CCN(C3CN(C4CCCC4)S(=O)(=O)C3)CC2)CC1 (stereo not given) do in these assays?
ClpP mod: -1.9%; TRPML1 ag: -0.1

What do the screens show for `CCC1OC(C)Cc2[nH][nH]c(=O)c21` (stereo not given)?
ClpP mod: 1.7%; TRPML1 ag: -0.3

Results for O=C(Nc1ncc(Cc2ccccc2)s1)C1CCN(C(=O)c2ccco2)CC1 ?
ClpP mod: -0.2%; TRPML1 ag: 0.4

How did O=C(Nc1cc(C(F)(F)F)cc(C(F)(F)F)c1)[C@H]1O[C@@H](n2ccc(=O)[nH]c2=O)[C@H](O)[C@@H]1O do in these assays?
ClpP mod: 2.3%; TRPML1 ag: -0.8

Results for S=c1[nH]nc2ccc3ccccc3n12 ?
ClpP mod: -9.8%; TRPML1 ag: -0.6

How did CC1=C(C(=O)N2CCCCCC2)CC(CC(=O)NCCCCc2ccccc2)C(=O)N1Cc1ccccc1 (stereo not given) do in these assays?
ClpP mod: 1.8%; TRPML1 ag: -0.7

Results for O=C(Nc1ccccc1)c1cc(C2CCCCN2C(=O)OCCF)on1 (stereo not given) ?
ClpP mod: -2.6%; TRPML1 ag: -0.5

What do the screens show for `COc1ccc(Nc2c(-c3ccc(F)cc3)nc3nc(C)cc(C)n23)cc1`?
ClpP mod: -1.6%; TRPML1 ag: -0.7

How did Brc1cccc[n+]1C/C=C/C[n+]1ccccc1Br do in these assays?
ClpP mod: -5.4%; TRPML1 ag: -0.7

Results for COc1cc2cc(OC(C)=O)c3cc4c(cc3c2c(OC)c1OC)OCO4 ?
ClpP mod: -13%; TRPML1 ag: -0.2

How did Cc1ccc(CNc2nc3cc(-c4ccccc4C)sc3c(=O)n2C)c(C)c1 do in these assays?
ClpP mod: -42%; TRPML1 ag: 0.3

What do the screens show for `CC(C)CNC(=O)C1(C)CCCN1C(=O)Cc1cccc2ccccc12` (stereo not given)?
ClpP mod: 0.1%; TRPML1 ag: -0.4

What do the screens show for `CC(O)(c1cccc(F)c1)c1nc(-c2csc3ccccc23)cs1` (stereo not given)?
ClpP mod: -0.8%; TRPML1 ag: 0.6

Results for O=C(O)c1cccc(-c2csc(C(O)c3ccccc3)n2)c1 (stereo not given) ?
ClpP mod: 1.4%; TRPML1 ag: -0.3

How did O=S1(=O)CC(N2CCC(Cc3ccccc3)CC2)CN1C1CCCC1 (stereo not given) do in these assays?
ClpP mod: 1.0%; TRPML1 ag: -0.5

Results for CCCNC(=O)C1(C)CCCN(Cc2ccc(-c3ccccc3)cc2)C1 (stereo not given) ?
ClpP mod: 0.1%; TRPML1 ag: -0.9

What do the screens show for `O=C(OC1CC2CC1[C@H]1CCCCN1C2=O)N1CCC(c2ccccc2)CC1` (stereo not given in full)?
ClpP mod: 0.4%; TRPML1 ag: 0.2

Results for CCCNC(=O)C1(C)CCCN(C(=O)c2ccccc2F)C1 (stereo not given) ?
ClpP mod: -0.7%; TRPML1 ag: -0.6

Results for COC(=O)[C@@H]1[C@H]2SC(C)(C)[C@H](C(=O)OC)N2C(=O)N1Cc1cc2ccccc2n1S(=O)(=O)c1ccccc1 ?
ClpP mod: -0.5%; TRPML1 ag: -0.4

Results for CCOC(=O)[C@]12CCC=C1N(Cc1ccco1)C(=O)[C@H](CC(=O)NCc1ccccc1)C2 ?
ClpP mod: -0.6%; TRPML1 ag: -0.9

Results for CC(C)(C)c1ccc(S(=O)(=O)NC(=O)C2(C)CCN2C(=O)Cc2cccc3ccccc23)cc1 (stereo not given) ?
ClpP mod: 0.9%; TRPML1 ag: 0.9

Results for O=C(NCc1ccc(F)cc1)c1cc(C2CCCN(C(=O)CCCc3ccccc3)C2)on1 (stereo not given) ?
ClpP mod: 0.0%; TRPML1 ag: 0.2

How did COc1ccc(Cl)cc1-c1cc(C(=O)Nc2ccc(C)c(NS(C)(=O)=O)c2)[nH]n1 do in these assays?
ClpP mod: 35%; TRPML1 ag: 0.1

What do the screens show for `CC(C)Oc1cc(F)ccc1-c1cc(C(=O)NCc2ccccn2)[nH]n1`?
ClpP mod: -3.1%; TRPML1 ag: -1.1

How did O=C1NC[C@H](Cc2ccc(O)cc2)N(CCc2cc(C(F)(F)F)cc(C(F)(F)F)c2)C1=O do in these assays?
ClpP mod: -1.3%; TRPML1 ag: -0.5

Results for COc1ccc(CN2CCC(C)(Oc3cccc(F)c3)C2)c2ccccc12 (stereo not given) ?
ClpP mod: inconclusive; TRPML1 ag: -0.6

An excerpt from above in order of molecular weight, smallest number first:
Results for CCCNC(=O)C1(C)CCCN(C(=O)c2ccccc2F)C1 (stereo not given) ?
ClpP mod: -0.7%; TRPML1 ag: -0.6

Results for O=C(O)c1cccc(-c2csc(C(O)c3ccccc3)n2)c1 (stereo not given) ?
ClpP mod: 1.4%; TRPML1 ag: -0.3

What do the screens show for `CC(C)CNC(=O)C1(C)CCCN1C(=O)Cc1cccc2ccccc12` (stereo not given)?
ClpP mod: 0.1%; TRPML1 ag: -0.4

What do the screens show for `CC(C)Oc1cc(F)ccc1-c1cc(C(=O)NCc2ccccn2)[nH]n1`?
ClpP mod: -3.1%; TRPML1 ag: -1.1

What do the screens show for `CC(O)(c1cccc(F)c1)c1nc(-c2csc3ccccc23)cs1` (stereo not given)?
ClpP mod: -0.8%; TRPML1 ag: 0.6

How did O=S1(=O)CC(N2CCC(Cc3ccccc3)CC2)CN1C1CCCC1 (stereo not given) do in these assays?
ClpP mod: 1.0%; TRPML1 ag: -0.5

Results for COc1ccc(CN2CCC(C)(Oc3cccc(F)c3)C2)c2ccccc12 (stereo not given) ?
ClpP mod: inconclusive; TRPML1 ag: -0.6

What do the screens show for `O=C(OC1CC2CC1[C@H]1CCCCN1C2=O)N1CCC(c2ccccc2)CC1` (stereo not given in full)?
ClpP mod: 0.4%; TRPML1 ag: 0.2

How did COc1ccc(Cl)cc1-c1cc(C(=O)Nc2ccc(C)c(NS(C)(=O)=O)c2)[nH]n1 do in these assays?
ClpP mod: 35%; TRPML1 ag: 0.1

Results for O=C(NCc1ccc(F)cc1)c1cc(C2CCCN(C(=O)CCCc3ccccc3)C2)on1 (stereo not given) ?
ClpP mod: 0.0%; TRPML1 ag: 0.2

Results for CC(C)(C)c1ccc(S(=O)(=O)NC(=O)C2(C)CCN2C(=O)Cc2cccc3ccccc23)cc1 (stereo not given) ?
ClpP mod: 0.9%; TRPML1 ag: 0.9

Results for COC(=O)[C@@H]1[C@H]2SC(C)(C)[C@H](C(=O)OC)N2C(=O)N1Cc1cc2ccccc2n1S(=O)(=O)c1ccccc1 ?
ClpP mod: -0.5%; TRPML1 ag: -0.4
